From PubChem
RecA intein inh = blocks M. tuberculosis RecA intein splicing. P9WHJ3. cell-free RecA intein splicing, fluorescence. inhibition, %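 (about 9 µM by stock and volumes)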. hit rate 0.75% among 290,000; in the data active = inhibition above about 30%;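 also: 0% = vehicle wells and 100% = reference inhibitor control wells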
Target sequence (P9WHJ3 whole entry, looked up): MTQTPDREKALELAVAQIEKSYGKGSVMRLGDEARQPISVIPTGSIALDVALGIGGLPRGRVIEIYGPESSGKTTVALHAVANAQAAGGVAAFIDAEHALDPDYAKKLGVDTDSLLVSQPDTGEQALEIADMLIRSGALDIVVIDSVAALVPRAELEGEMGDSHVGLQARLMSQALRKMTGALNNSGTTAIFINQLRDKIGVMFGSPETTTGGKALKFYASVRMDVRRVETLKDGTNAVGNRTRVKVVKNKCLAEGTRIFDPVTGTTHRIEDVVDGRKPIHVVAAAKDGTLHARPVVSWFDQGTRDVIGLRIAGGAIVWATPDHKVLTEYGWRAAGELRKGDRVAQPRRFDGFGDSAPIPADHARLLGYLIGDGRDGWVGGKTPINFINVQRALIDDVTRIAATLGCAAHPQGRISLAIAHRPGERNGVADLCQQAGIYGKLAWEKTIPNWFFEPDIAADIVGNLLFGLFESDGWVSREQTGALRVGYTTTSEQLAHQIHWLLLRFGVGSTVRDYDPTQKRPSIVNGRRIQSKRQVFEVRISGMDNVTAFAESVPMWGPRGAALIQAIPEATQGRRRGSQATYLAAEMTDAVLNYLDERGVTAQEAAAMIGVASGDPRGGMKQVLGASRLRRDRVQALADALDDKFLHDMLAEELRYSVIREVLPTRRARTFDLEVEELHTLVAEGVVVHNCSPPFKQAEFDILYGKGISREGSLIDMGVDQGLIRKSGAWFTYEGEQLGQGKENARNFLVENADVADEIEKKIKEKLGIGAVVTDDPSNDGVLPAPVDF
Mtb bLac sens = beta-lactam sensitization of Mtb H37Rv. M. tuberculosis H37Rv growth with meropenem, percent inhibition; hits of this screen are not shown here. inhibition, % at 25 µM. hit rate 0.27% among 330,000. AID 434955;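 active = about 74% or more and at least 40 points above the plate without the antibiotic, then above 30% in a dose series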;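 also: growth measured after seven days incubation then overnight dye step; 0% = bacteria only wells and 100% = bacteria with antibiotic; twin plates without the antibiotic show which effects depend on it; some results filed as inactive read as strong as hits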
YopH PTP inh = blocks Yersinia enterocolitica YopH tyrosine phosphatase; fluorescence Ex485/Em525; inhibition, %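 (about 10 µM by stock and volumes)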; hit rate 0.16% among 140,000; AID 898;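 active = inhibition of 50% or more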;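 also: controls were vehicle for no effect and minimum signal wells for full effect; inactives centre near -20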
Mtb growth = M. tuberculosis H37Rv growth inhibitors, H37Rv strain (AID 1626) | M. tuberculosis H37Rv growth inhibition; higher % means a stronger effect | one-dose inhibition, % at 10 µM; IC50 in µM for titrated hits | hit rate 0.95% among 220,000;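 active = confirmed in a dose series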;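 also: bacteria incubated seven days before Alamar blue readout; 0% = bacteria only wells and 100% = bacteria with antibiotic wells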
Arbovirus inh = arbovirus infection inhibition. arbovirus infection cell-based antiviral screen. inhibition, % at 10 µM. hit rate 0.37% among 200,000;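 active = inhibition from about 30%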;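 also: bluetongue infection of BSR cells; cell survival read as ATP light after 72 h; 0% = infected wells without compound and 100% = uninfected wells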
Arbovirus inh repeat = further read-out of Arbovirus inh, marked with its call; inhibition, %; measured here: 10K subset replicate screen; many hits read low in the repeat;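 first of two repeat runs on a subset; 0% = infected and 100% = uninfected wells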
* hit, by the source's call; · = not tested or not shown.

SMILES | RecA intein inh | Mtb bLac sens | YopH PTP inh | Mtb growth | Arbovirus inh | others
CC(C)(C)C(=O)N1CCC(O)(CS(=O)(=O)Cc2ccc(Cl)cc2)CC1 | -2.2 | -0.7 | -32.5 | -13.8% | 2.7
CCOC(=O)c1c(N)c2cc([N+](=O)[O-])ccc2n1C | -1.4 | -8.5 | · | 0.8% | ·
C=CCN(c1ccccc1)S(=O)(=O)c1cccc(C(=O)N2CCCC2)c1 | -2.4 | -6.0 | · | · | ·
CNC(=O)C1CC(=O)N(CCCc2ccccc2)C(=Nc2ccccc2)S1 (stereo not given) | 0.6 | 3.1 | -24.1 | -0.1% | -4.8
C[C@]12CCC(OC(=O)CCC(=O)O)CC1=CCC1C2CC[C@]2(C)C(=O)CCC12 (stereo not given in full) | -1.2 | -3.9 | · | · | ·
Cc1ccc(Cl)cc1-n1c(=O)cc(N2CCN(C(=O)c3ccco3)CC2)[nH]c1=O | -0.8 | -2.9 | -26.5 | -5.4% | 1.7
Cc1ccc(Cl)cc1NC(=O)Cn1cc2c(n1)CCCC2 | 0.8 | 1.1 | -40.0 | 2.5% | 4.9 | Arbovirus inh repeat=-5.8
Cc1ccc(N=Cc2c(O)n(C)c(=O)n(C)c2=O)nc1 | 1.4 | 6.1 | 4.6 | -0.1% | 4.3 | Arbovirus inh repeat=-0.1
CCOC(=O)c1ccc(N2CCCCC2)c(NS(=O)(=O)c2ccc(C)cc2)c1 | 3.8 | -1.0 | · | 2.1% | ·
CC(C)Cn1c(N)c(C(=O)COC(=O)Cc2cccc(C(F)(F)F)c2)c(=O)n(C)c1=O | 3.0 | 6.2 | · | · | ·
Cc1cccc(OCC(=O)NCc2ccc(F)cc2)c1 | -1.4 | 3.5 | · | · | ·
Cc1sc2c(c1C)C(=O)NC(c1cccc(O)c1)N2 (stereo not given) | -3.5 | -6.0 | 7.0 | -12.1% | 2.9
CC1CCCN(C(=O)c2ccccc2OC2CCN(S(C)(=O)=O)CC2)C1 (stereo not given) | 0.3 | 0.6 | · | 5.5% | -1.8
Cn1cccc1-c1nc2ccc(NC(=O)c3ccccc3)cc2[nH]1 | 2.0 | -11.5 | -46.4 | 3.7% | -9.5
CCOc1cc(/C=C2\C(=N)N3N=C(S(C)(=O)=O)SC3=NC2=O)ccc1OCCOc1cccc(OC)c1 | 14.3 | -5.3 | · | · | ·
CCN(c1cccc(C)c1)S(=O)(=O)c1cc2c3c(c1)CCN3C(=O)CC2 | 4.5 | -12.6 | · | · | ·
CC(=O)Nc1ccc(S(=O)(=O)NCc2nnnn2-c2ccc(F)cc2)cc1 | -2.8 | 0.2 | · | · | ·
C=C(C)CNC(=S)N/N=C/C1=CCC2CC1C2(C)C (stereo not given) | 1.7 | 7.2 | -22.4 | 15.4% | 16.3
CCc1ccc(-c2cc(C)no2)cc1S(=O)(=O)N1CCN(c2ccccc2OC)CC1 | 4.8 | 1.3 | · | · | ·
Cc1cccc(OCc2nc(C)cc(=O)[nH]2)c1 | -0.5 | · | -22.1 | 3.0% | -4.6
CC(=O)c1ccc(Oc2nc(-c3cccnc3)nc3ccccc23)cc1 | 0.8 | 12.6 | · | 1.1% | 1.6
CC(=O)Cc1nsc(NC(=O)c2ccc(-c3cccc(Cl)c3)o2)n1 | 7.5 | 1.7 | · | -6.7% | -16.7
O=C(c1ccccc1-c1nc2ccccc2[nH]1)N1CCCCC1 | · | -3.1 | -45.3 | 1.6% | 0.3
C=CCC(NCc1ccco1)c1ccc(OC)c(OC)c1 (stereo not given) | -1.3 | -2.5 | -25.2 | -7.3% | -2.5
Cc1ccc(-n2c(C)cc(/C=N/Nc3ccc([N+](=O)[O-])cn3)c2C)cc1 | -0.4 | 7.1 | -23.3 | · | -6.9
CC(=O)C1=C(O)C(=O)N(c2ccc(O)cc2)C1c1cccc(F)c1 (stereo not given) | -1.7 | 2.4 | · | · | ·
COc1ccc2[nH]c3c(c2c1)CCNC3C1CC=C(C)CC1 (stereo not given) | 0.7 | -2.7 | · | -1.0% | -32.6
NC(=O)c1nc(-c2ccccc2)c(-c2ccccc2)[nH]c1=O | 1.0 | -6.2 | · | · | ·
CCCCn1c(N)c(N(CCC(C)C)C(=O)CN2C(=O)C3CCCCC3C2=O)c(=O)[nH]c1=O (stereo not given) | 0.0 | -7.5 | · | · | ·
Cc1ccc(C(=O)Nc2nccc(-c3cccs3)n2)cc1 | 0.2 | -2.5 | -14.1 | -6.7% | -2.0
CC1CCN(C(C(=O)Nc2ccc(C(C)C)cc2)c2ccc3c(c2)OCO3)CC1 (stereo not given) | 9.9 | 6.0 | -7.3 | 75.5% | -22.4
COc1ccc(C[C@H]2CN3C(=NC[C@@H]3Cc3ccc(O)cc3)N2C[C@H](C)NC(=O)c2ccc(C)c(Br)c2)cc1 | 15.5 | 100.0 | · | 6.33µM* | ·
Cc1[nH]ccc(=O)c1OCc1c(Cl)cccc1Cl | 2.0 | -4.6 | -38.0 | -5.2% | -0.3
O=C(NCc1ccc2c(c1)OCO2)c1nc(S(=O)(=O)Cc2ccccc2)ncc1Cl | 53.3* | 15.9 | · | · | ·
Cc1ccnc(NC(=O)C2CCCN(S(=O)(=O)c3ccc4[nH]c(=O)ccc4c3)C2)c1 (stereo not given) | -3.8 | -1.0 | · | · | ·
COc1ccc2c(c1)C1C=CCC1C(c1cc3c(cc1Br)OCO3)N2 (stereo not given) | 8.2 | 15.3 | -32.2 | -8.7% | -1.1
COc1cc(C(=S)N2CCN(C)CC2)ccc1OCC(=O)NCc1ccccc1 | 0.1 | 0.9 | · | 3.7% | 0.2
Cn1c(=O)c2c(nc(N3CCCCCC3)n2CC(O)COc2ccccc2)n(C)c1=O (stereo not given) | -0.1 | -5.0 | -40.1 | -4.1% | -1.8
COCc1cc(C)nc(OCC(=O)N/N=C/c2cccc(OC)c2)c1C#N | -2.6 | -5.7 | 1.0 | -10.9% | -4.5
CCN1C(=O)N/C(=C/c2ccc(Sc3ccc(C)cc3)o2)C1=O | 1.4 | -7.3 | -1.9 | 11.5% | 3.9

Reprinted from the part before: 4 entries, then new ones.
SMILES | RecA intein inh | Mtb bLac sens | YopH PTP inh | Mtb growth | Arbovirus inh | others
COc1cc(C(=S)N2CCN(C)CC2)ccc1OCC(=O)NCc1ccccc1 | 0.1 | 0.9 | · | 3.7% | 0.2
Cn1c(=O)c2c(nc(N3CCCCCC3)n2CC(O)COc2ccccc2)n(C)c1=O (stereo not given) | -0.1 | -5.0 | -40.1 | -4.1% | -1.8
COCc1cc(C)nc(OCC(=O)N/N=C/c2cccc(OC)c2)c1C#N | -2.6 | -5.7 | 1.0 | -10.9% | -4.5
CCN1C(=O)N/C(=C/c2ccc(Sc3ccc(C)cc3)o2)C1=O | 1.4 | -7.3 | -1.9 | 11.5% | 3.9
Cc1ccnc(NC(=O)CSc2nnc3c(n2)[nH]c2ccccc23)c1 | -0.1 | 5.2 | · | -7.0% | -8.1
COC(=O)c1cn(Cc2ccccn2)c(=O)c2ccccc12 | -2.6 | -5.0 | · | -3.7% | -0.2
O=C(COc1ccccc1)NCCc1cn2ccsc2n1 | -10.2 | 4.3 | -54.3 | 67.0% | 1.4
CS(=O)(=O)Nc1ccc(C2=NN(S(C)(=O)=O)C(c3ccccc3)C2)cc1 (stereo not given) | 1.2 | 3.0 | -13.6 | -1.8% | 5.3
CN1CCN(C(=O)c2ccc(C3SCC(=O)N3Cc3ccco3)cc2)CC1 (stereo not given) | · | 1.4 | -27.0 | -3.2% | -2.5
O=C(Nc1ccc2c(c1)OCO2)Nc1ccc2c(c1)OCO2 | 1.3 | 3.1 | · | 5.0% | -6.5
CC(NC(=O)C(=O)N1CCOCC1)C(c1cccs1)N1CCN(c2ccccc2)CC1 (stereo not given) | -1.2 | -2.5 | · | · | ·
COCCN(CC(=O)NC1CCCCC1)C(=O)CCCC(=O)Nc1ccccn1 | 0.2 | -14.3 | · | -5.8% | 9.3
CCOC(=O)N1CCN(Cc2cc(=O)oc3cc4c(cc23)CCC4)CC1 | -2.1 | -23.6 | -62.0 | -9.4% | 2.5
CC(=O)Nc1ccccc1-c1nc2ccccc2nc1OCC(=O)c1ccc(Cl)cc1 | -1.0 | -5.2 | -17.1 | -0.6% | -1.4
COc1cccc(CNC(=O)c2cc(S(=O)(=O)N3CCCC3)cn2C)c1 | 1.5 | 1.8 | · | · | ·
O=C(c1ccc(Br)cc1)N1CCN(Cc2ccccc2)CC1 | 0.4 | -2.7 | · | · | ·
O=C(Cc1cccc(C(F)(F)F)c1)N1CCCC1 | -1.8 | -1.4 | · | · | ·
C=CCN1C=CC(=CC=C(C#N)C#N)C=C1 | -10.0 | 2.2 | · | 7.4% | ·
CC(C)(C)c1ccc(C(=O)N/C(=C/c2cccs2)C(=O)NCc2ccco2)cc1 | 3.4 | 0.6 | -43.9 | 3.3% | -8.0
CCOC(=O)c1c(C)c(C(=O)NCCN2CCOCC2)c(C)n1CC | -2.2 | -3.5 | -36.5 | -4.0% | 5.1
Cc1cc(-c2ccccc2)nc(N/N=C/c2ccco2)n1 | -4.1 | 61.5 | 10.0 | -9.7% | -4.7
CC(C)C(NC(=O)OCc1ccccc1)C(=O)NC1CCCCC1 (stereo not given) | -1.9 | -7.8 | -13.0 | -3.5% | -0.9
CCc1ccc(C2CC(c3ccc(C)cc3)Nc3nc(N)nn32)cc1 (stereo not given) | 1.0 | 3.9 | 5.1 | 0.1% | 8.9 | Arbovirus inh repeat=4.3
Cc1ccc(-c2cc3nc(-c4ccccc4)cc(N)n3n2)cc1 | 4.1 | -8.5 | -38.2 | 0.6% | 1.1
N#CCCN(Cc1cccnc1)C(=O)c1sc2cc(F)ccc2c1Cl | 0.3 | -10.0 | -22.1 | -2.2% | 5.0
COc1ccc(NC(=O)CN2CCN(S(=O)(=O)c3ccc(Cl)cc3)CC2)cc1 | 3.5 | 1.3 | -29.6 | 8.5% | 3.8
O=C(CCc1nnc(C2CCCCC2)o1)NCc1ccc(F)c(F)c1 | -0.5 | -3.8 | · | 2.6% | 3.6
COc1ccccc1CNC(=O)CNCC1CCCO1 (stereo not given) | -8.7 | -7.0 | -40.2 | -3.9% | -1.1
O=C(CSC1=NCCS1)Nc1ccc(S(=O)(=O)N2CCCCCC2)cc1 | 33.0* | 9.7 | -48.9 | -8.2% | -9.4
CCOc1ccc(S(=O)(=O)N2CCCC(C(=O)NCc3ccco3)C2)cc1 (stereo not given) | -2.6 | -15.1 | · | · | ·
CCc1ccc(N2CCN(C(=O)c3ccc4c(c3)OCO4)CC2)cc1 | -4.6 | 1.1 | · | · | ·
COc1ccc(CN(C(C)=O)c2ccccc2C(=O)O)cc1 | 2.3 | 1.1 | · | -14.6% | ·
O=C(c1ccc(Br)s1)N1CCN(S(=O)(=O)c2ccccc2)CC1 | 2.5 | -2.6 | · | · | ·
O=C(O)C1CCN(S(=O)(=O)c2cccs2)CC1 | -1.1 | -4.0 | · | · | ·
CC(=O)Nc1ccc(OCC(=O)NC(C)C(C)C)cc1 (stereo not given) | -2.7 | -5.4 | -15.0 | -7.7% | 9.1
COc1ccc(OC)c(-c2cc(C(=O)N3CCN(c4ncccn4)CC3)c3ccccc3n2)c1 | 6.2 | 1.9 | -26.1 | 4.1% | 12.3
O=C(C1CCN(S(=O)(=O)N2CCOCC2)CC1)N1CCN(Cc2ccccc2)CC1 | -2.1 | -7.8 | -24.6 | -4.7% | 8.4
COc1ccc(Cc2nc3ccc(C(=O)NC4CCOC4)cc3o2)cc1 (stereo not given) | -0.2 | 3.1 | · | · | ·
COc1ccc([N+](=O)[O-])c(OC)c1C(=O)NC(=O)Nc1nc(C)cc(C)n1 | -0.9 | 3.0 | · | -0.3% | ·
CCC(=O)Nc1ccccc1N1CCN(S(C)(=O)=O)CC1 | -1.3 | -10.7 | 1.4 | -7.8% | 2.8
Cc1nc2ccccn2c1C(=O)N/N=C/c1cc(C)n(-c2ccc(Br)cc2)c1C | 5.0 | 45.0 | -18.1 | -4.8% | 9.8
CC(C)CC(c1nnnn1C(C)C)N1CCN(c2ccccc2)CC1 (stereo not given) | 1.8 | -7.3 | -3.6 | 3.6% | 16.6
Cc1nc(N)ncc1-c1ccc2c(c1)OCO2 | 0.6 | -3.6 | · | · | ·
COc1ccc(NC(=O)c2cccc(NC(=O)c3ccco3)c2)c(OC)c1 | -0.5 | 13.1 | -14.2 | -0.2% | 0.0
C=CCc1c(C)nc(SCc2nc3ccccc3c(=O)[nH]2)[nH]c1=O | 2.7 | -8.9 | -5.7 | -11.4% | 6.0 | Arbovirus inh repeat=10.9
CCO[C@@H]1OC(C(=O)NC2CC2)=C[C@H](c2ccccc2)[C@H]1CCCO | 1.1 | -4.4 | · | -14.1% | 0.3
COc1cc2c(cc1NC(=O)COC(=O)c1ccccc1)oc1ccccc12 | 1.5 | 76.2 | · | 61.3% | 3.3
Cc1ccc(NS(=O)(=O)c2cccc(C(=O)Nc3cc(C)on3)c2)cc1 | 3.4 | -4.4 | -33.1 | -1.9% | -0.4

An excerpt; the hit share may differ from the screen's.
